KCNQ2 block: KCNQ2 potassium channel inhibitors, primary screen, cell-based, CHO-K1, FluxOR thallium flux, B-score (AID 2156); 20 min; stronger effect = lower value; only compounds with negative scores are shown here; some inactives read as strong as hits; B-score at 10 µM; hit rate 1.1% among 310,000;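 active means fluorescence ratio B-score at most minus 3 library SDs, with starting brightness B-score within 2 library SDs, cut at about -5.5 in these data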
Target sequence (O88943 whole entry, looked up): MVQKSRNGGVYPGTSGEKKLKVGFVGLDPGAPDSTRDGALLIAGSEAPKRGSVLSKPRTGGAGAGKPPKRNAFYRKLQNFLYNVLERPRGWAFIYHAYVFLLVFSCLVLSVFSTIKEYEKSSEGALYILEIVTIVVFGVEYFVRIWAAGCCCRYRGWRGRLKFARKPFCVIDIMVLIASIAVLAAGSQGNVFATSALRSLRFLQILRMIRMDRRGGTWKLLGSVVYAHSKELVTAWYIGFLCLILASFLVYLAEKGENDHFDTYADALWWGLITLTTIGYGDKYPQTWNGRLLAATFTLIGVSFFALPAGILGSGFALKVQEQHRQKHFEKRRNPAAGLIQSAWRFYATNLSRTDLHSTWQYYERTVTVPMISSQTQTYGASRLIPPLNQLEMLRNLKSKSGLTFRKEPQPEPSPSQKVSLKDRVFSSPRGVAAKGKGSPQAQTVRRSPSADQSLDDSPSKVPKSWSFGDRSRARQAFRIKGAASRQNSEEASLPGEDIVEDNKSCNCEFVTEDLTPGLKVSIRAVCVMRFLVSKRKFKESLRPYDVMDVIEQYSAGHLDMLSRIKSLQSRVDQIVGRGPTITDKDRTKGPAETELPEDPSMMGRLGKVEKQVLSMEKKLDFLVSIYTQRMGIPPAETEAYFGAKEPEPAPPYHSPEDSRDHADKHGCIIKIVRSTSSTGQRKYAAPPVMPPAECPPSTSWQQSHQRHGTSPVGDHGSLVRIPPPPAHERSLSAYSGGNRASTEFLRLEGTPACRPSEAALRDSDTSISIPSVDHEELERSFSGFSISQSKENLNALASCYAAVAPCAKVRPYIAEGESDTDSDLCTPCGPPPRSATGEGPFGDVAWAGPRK
KCNQ2 block baseline: second read-out of KCNQ2 block, no call of its own (marks repeat the call); B-score; measured here: initial fluorescence intensity artifact check;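 brightness before thallium and not channel activity; 0 = typical well and far values either way flag optical interference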
Starred values were filed as active, the others as inactive; i = inactive. The list is partial (hit frequency here may not be typical).

Fields – KCNQ2 block baseline	KCNQ2 block
- CCCC(c1nnnn1CCOC)N(Cc1cc2cc(C)c(C)cc2[nH]c1=O)CC1CCCO1 (stereo unspecified)
    -0.14	i
- CCN(Cc1ccncc1)C(=O)c1ccco1
    -0.29	i
- Cn1c(=O)oc2cc(S(=O)(=O)NCc3ccncc3)ccc21
    1.9	i
- Cc1cccc(N2C(=O)/C(=C/c3ccccn3)SC2=S)c1
    -1.3	i
- COCCNC(=O)C/C(C)=N/NC(=O)C(=O)NC1CCCCC1
    0.85	i
- CNC(=S)N1CCc2cc(OC)c(OC)cc2C1COc1ccc(F)cc1 (stereo unspecified)
    0.19	i
- O=C(NCC1CCCO1)c1onc(CSc2ccccc2F)c1C(=O)O (stereo unspecified)
    0.26	i
- O=C(NCCOc1nc(N2CCCCC2)nc(N2CCOCC2)n1)Nc1ccccc1
    0.35	i
- Cc1nn(C)c(C)c1CN(C)C(=O)C1c2ccccc2Oc2ccccc21
    1.3	i
- N#CCC(=O)Nc1ccc(C(=O)Nc2cccnc2)cc1
    -1.2	i
- Oc1ccc2oc3c(c2c1/C=N/n1cnnc1)CCCC3
    -0.03	i
- COc1ccc(NC(=S)N2CCN(c3ncccn3)CC2)cc1
    1.1	i
- Cc1cc(F)ccc1S(=O)(=O)Nc1ccc(O)c(Sc2ncn[nH]2)c1
    0.41	i
- COc1cccc(CCC(=O)N2CCC(n3nccc3NC(=O)C3CCOC3)CC2)c1 (stereo unspecified)
    1.2	i
- COc1ccc(-n2c(CN3CCN(c4ccccn4)CC3)nc3ccc([N+](=O)[O-])cc3c2=O)c(OC)c1
    0.35	i
- N#Cc1c(N)nc(SCC(=O)C23CC4CC(CC(C4)C2)C3)c(C#N)c1-c1ccc(Cl)cc1
    0.19	i
- COc1ccc(C(=O)CCc2ccccc2)cc1
    -0.24	i
- c1cncc(-c2nc3ccccc3o2)c1
    0.97	i
- COc1cc(C(=O)N2CCN(c3ccccc3OC)CC2)c([N+](=O)[O-])cc1OC
    0.26	i
- COC(=O)CCC(=O)NNC(=O)c1ccc(Cl)cc1Cl
    2	i
- NC(=O)c1ccc(-n2c(CCC(=O)O)ccc2-c2cccs2)cc1
    -1.1	i
- CCc1cc2c(=O)c(-c3nc4ccccc4n3C)coc2c(CN2CCCCC2)c1O
    -0.92	i
- O=C(c1ccccn1)N(Cc1ccco1)C1(C(=O)NC2CCCC2)CCCCC1
    -1.2	i
- O=C(COC(=O)c1c2c(nc3ccccc13)/C(=C/c1cccc([N+](=O)[O-])c1)CCC2)NC1CCS(=O)(=O)C1 (stereo unspecified)
    -0.23	i
- CCC(=O)N1CCN(c2ccc(NC(=O)COc3ccc(C)cc3C)cc2)CC1
    -1.2	i
- Cc1c(CCOC(=O)CC23CC4CC(CC(C4)C2)C3)sc[n+]1Cc1ccccc1
    -0.11*	-5.6*
- CCN(CC)S(=O)(=O)c1ccc(N(C)Cc2cccc(OC)c2OC)nc1
    -0.32	i
- COc1ccccc1N1CCN(C(=O)CNC(=O)c2ccc(Cl)cc2Cl)CC1
    0.03	i
- COc1ccc(-c2cncnc2-c2ccc(OC)cc2O)cc1
    0.86	i
- CC(C)CC1NC(=O)N(CC(=O)NC2CCCc3ccccc32)C1=O (stereo unspecified)
    -1.1	i
- S=c1[nH]nc(Cc2cccs2)n1-c1ccccc1
    -0.22	i
- Cc1ccc(CSc2nc3c(c(=O)[nH]c(=O)n3C)n2CCC(C)C)cc1
    0.29	i
- Cc1ccc(N2CC(C(=O)NCc3n[nH]c(=O)c4ccccc34)CC2=O)cc1C (stereo unspecified)
    1.2	i
- CC(Sc1nc2ccccc2n1C)C(=O)NC(c1ccccc1)c1ccccc1 (stereo unspecified)
    -0.26*	-6.1*
- COc1ccc(N(CC(=O)NCc2ccc(Cl)cc2)S(=O)(=O)c2ccccc2[N+](=O)[O-])c(OC)c1
    0.96	i
- Cc1ccc(-c2ccc(C(=O)O)c(C)n2)cc1
    -0.04	i
- CCC(=O)N1CCN(c2ccc(Cl)cc2NC(=O)Cc2ccc(Cl)cc2)CC1
    0.02	i
- Cc1ccc(C(=O)NCCc2nnc3ccc(SCC(=O)NCc4ccc(F)cc4)nn23)cc1
    2.1	i
- COc1ccc([C@H]2[C@@H]3C=CCC[C@@]3(C)C(=O)N2Cc2ccccc2)cc1Cl
    -0.67	i
- CS(=O)(=O)N(CC(=O)N1CCN(c2cccc(Cl)c2)CC1)c1ccccc1
    -0.53	i
- COc1ccc(C=O)cc1COc1ccccc1F
    1.1	i
- O=C(O)COc1ccc(/C=N/NC(=O)C2CCCN2S(=O)(=O)c2ccc(Cl)cc2)cc1 (stereo unspecified)
    -0.14	i
- O=Cc1c[nH]c2ccc(S(=O)(=O)N3CCOCC3)cc12
    0.49	i
- CCOc1ccccc1NC(=O)c1ccc(S(=O)(=O)N2CCOCC2)cc1
    1	i
- CCCCn1c(N)c(N(CCC(C)C)C(=O)CC2CCCCC2)c(=O)[nH]c1=O
    -0.86	i
- O=S(=O)(c1ccc(Cl)s1)N1CCN(C/C=C/c2ccccc2)CC1
    1.1	i
- Cc1cc(C)c(NC(=O)CNC(=O)COC(=O)CNC(=O)c2ccc(Cl)cc2Cl)c(C)c1
    0.03	i
- Cc1ccc(C)c(NC(=O)CN(C)C(=O)c2nn(C)c(=O)c3ccccc23)c1
    1.1	i
- CCOC(=O)C1CCN(c2ncnc3c2cnn3-c2ccccc2)CC1
    0.23	i
- Cc1ccc(C2CC(=O)C(C=NCCN3CCN(C(=S)Nc4ccccc4)CC3)=C(O)C2)cc1 (stereo unspecified)
    -0.39	i
- Cc1ccc(S(=O)(=O)NC(=O)NCc2ccc(Cl)cc2)cc1
    1.6	i
- C=CCn1c(=O)c2c(nc3n2CCCN3CCc2ccc(OC)c(OC)c2)n(C)c1=O
    -0.17	i
- COC(=O)c1cc2c(cc1NC(=O)CSCCc1ccccn1)OCO2
    0.38	i
- Nc1nc2ccc(C(=O)Nc3ccccc3)cc2s1
    1.4	i
- CC(=O)N1CCN(CC(=O)Nc2ccc(SC(F)F)cc2)CC1
    0.37	i
- O=C(/C=C/c1ccccc1)OCc1cncs1
    1.7	i
- Cc1cccc(-c2nc(CN3CCN(Cc4cccc(F)c4)CC3)c(C)o2)c1
    -1.6	i
- Cc1ccc(C(=O)OCC(=O)NCc2ccco2)s1
    0.37	i
- CC(C)Oc1ccc(CN2CCCC(CO)(Cc3ccccc3)C2)cc1CO (stereo unspecified)
    0.53	i
- O=C(CNC(=O)Cc1ccccc1)NCC(=O)OCC(=O)c1ccc(F)cc1
    1.2	i

A different layout for some results above.
| SMILES | KCNQ2 block baseline | KCNQ2 block |
| --- | --- | --- |
| Cc1ccc(S(=O)(=O)NC(=O)NCc2ccc(Cl)cc2)cc1 | 1.6 | i |
| C=CCn1c(=O)c2c(nc3n2CCCN3CCc2ccc(OC)c(OC)c2)n(C)c1=O | -0.17 | i |

Reformatted: 6 of the compounds above.
Molecule	KCNQ2 block baseline	KCNQ2 block
Cc1ccc(C2CC(=O)C(C=NCCN3CCN(C(=S)Nc4ccccc4)CC3)=C(O)C2)cc1 (stereo unspecified)	-0.39	i
C=CCn1c(=O)c2c(nc3n2CCCN3CCc2ccc(OC)c(OC)c2)n(C)c1=O	-0.17	i
Cc1ccc(C(=O)OCC(=O)NCc2ccco2)s1	0.37	i
Cc1cccc(-c2nc(CN3CCN(Cc4cccc(F)c4)CC3)c(C)o2)c1	-1.6	i
Nc1nc2ccc(C(=O)Nc3ccccc3)cc2s1	1.4	i
COC(=O)c1cc2c(cc1NC(=O)CSCCc1ccccn1)OCO2	0.38	i

Additional compounds follow.
Fields – KCNQ2 block baseline	KCNQ2 block
- O=C(NCC(c1ccco1)N1CCc2ccccc21)c1ccccc1Br (stereo unspecified)
    -1.1	i
- COc1cccc(N=C2NC(=O)/C(=C/c3cc([N+](=O)[O-])ccc3O)S2)c1
    -0.01	i
- CCOC(=O)C(NCc1ccccc1)(NC(=O)c1ccccc1)C(F)(F)F (stereo unspecified)
    0.63	i
- O=C(COc1cc2oc(=O)c3c(c2cc1Cl)CCC3)NCC(O)c1ccccc1 (stereo unspecified)
    0.27	i
- COc1ccc(CCNC(=O)c2nnn(-c3ccccc3OC)c2N)cc1OC
    3.3	i
- CC(=O)c1c(O)cc(C)n(Cc2ccccc2)c1=O
    0.38	i
- O=C(N/N=C/c1ccccc1O)C1SCCCS1
    0.72	i
- O=C(COc1cccc2cccnc12)NCc1cccs1
    -0.39	i
- Cc1ccccc1C(=O)NCCCNC(=O)c1ccco1
    2	i
- CC(C)Oc1ccc(/C(O)=C2/C(=O)C(=O)N(CCN3CCNCC3)C2c2ccc(C(C)C)cc2)cc1 (stereo unspecified)
    -0.04	i
- Cc1nc2c(-c3ccc(F)cc3)c(C)nn2c(C)c1CCC(=O)N1CCN(c2ccccc2)CC1
    -1.5	i
- C/C=N/NC(=O)CCCC(=O)N/N=C/C
    1.3	i
- O=C(NCCc1ccc(Cl)cc1)C1CCN(c2cnccn2)CC1
    -0.77	i
- CCN(CC)C(=O)Cn1c(=O)n(CCC(=O)Nc2ccc(F)cc2)c(=O)c2sccc21
    -1.4	i
- COCC1CCN(C(=O)CCc2nnc(CCCCc3ccccc3)o2)CC1
    -0.79	i
- CCOc1ccc(NC(=O)c2c(NC(=O)CNCCN3CCOCC3)sc3c2CCC3)cc1
    0.13	i
- CCOc1ccc(C(=O)Nc2ccc(N3CCN(S(C)(=O)=O)CC3)cc2)cc1[N+](=O)[O-]
    -0.18	i
- O=C(c1ccncc1)N1CCN(C(=O)c2ccco2)CC1
    0.13	i
- C=C1CCN([C@@H](C)C(=O)OCc2ccc(C)cc2)S(=O)(=O)c2ccccc21
    0.73	i
- COc1ccc(C(=O)Nc2ccccc2C(=O)NCc2ccco2)cc1
    0.01	i
- Cc1ccc(S(=O)(=O)N2CCC(=O)N(C(COCc3cccc(C)c3)Cc3ccccc3)CC2)cc1 (stereo unspecified)
    1.2*	-6.5*
- O=C(NCN1CCN(CCO)CC1)c1cnccn1
    0.14	i
- CCOC(=O)c1ccc(NC(=O)CC2Sc3ncnn3C2=O)cc1 (stereo unspecified)
    1.3	i
- O=C(Cc1nc2ccccc2[nH]1)NCc1ccco1
    -0.33	i
- Cc1cccc(Nc2ncnc(N)n2)c1
    0.15	i
- CC(=O)c1c(Cl)nc2ccc(Br)cc2c1-c1ccccc1
    0.32	i
- COc1ccc(Cl)cc1N1C(=O)CC(N2CCc3ccccc32)C1=O (stereo unspecified)
    1.2	i
- COc1ccc(CNC(=O)CN2CCN(c3cccc(C)c3C)CC2)cc1
    0.9	i
- CCC[N+](CC#Cc1ccccc1)(CCC)CC(=O)c1ccc(Cl)cc1
    -0.48	i
- CC(C)n1cnc2cc(NC(=O)c3ccco3)ccc21
    1.3	i
- O=S(=O)(c1ccc(Br)s1)N1CCN(c2ccnc3cc(Cl)ccc23)CC1
    -2.1	i
- CC(C)COC(=O)c1ccc(N2C(=O)c3ccccc3C2=O)cc1
    -1.4	i
- CCNC(=S)N(CCc1c(C)[nH]c2ccc(C)cc12)Cc1ccco1
    2.5	i
- Cn1ncc(Br)c1C(=O)NC12CC3CC(CC(C3)C1)C2
    2.7	i
- Cc1ccc(C(=O)Nn2cnc3scc(-c4cccs4)c3c2=O)c(O)c1
    -0.09	i
- COc1ccccc1NC(=O)C1=C(C)NC2=C(C(=O)CCC2)C1c1ccc(C)o1 (stereo unspecified)
    0.22	i
- CC1CC(C)CN(C(=O)COC(=O)C2CCN(S(=O)(=O)c3ccc4c(c3)OCCO4)CC2)C1 (stereo unspecified)
    2.1	i
- CCCS(=O)(=O)N1CCC(C(=O)N2CCC(Cc3ccccc3)CC2)CC1
    -1.1	i
- Cc1cccc(/C(N)=N/OC(=O)c2ccncc2)c1
    -3.1	i
- CC(C)C(CCNCc1ccccn1)c1ccc(Cl)cc1 (stereo unspecified)
    0.33	i
- COCCNC(=O)C(c1ccncc1)N(Cc1ccccc1)C(=O)Cn1nnc2ccccc21 (stereo unspecified)
    0.05	i
- COc1ccc(NC(=O)Cn2cc(C#N)c3ccccc32)cc1
    1.8	i
- N#CC1=C(N)NC(SCc2ccc(F)cc2)=C(C#N)C12CCCCC2
    1.4	i
- Cc1ccc(/C=C2\Oc3c(ccc(O)c3CN3CCN(CCO)CC3)C2=O)cc1
    12	i
- O=C(CCN1CCCO1)N1CCCC(N2CCN(c3ccccc3F)CC2)C1 (stereo unspecified)
    -0.43	i
- Cc1cc(C)n(-c2c(F)c(F)c(COC(=O)c3ccccc3)c(F)c2F)n1
    -0.98	i
- Cc1ccc(-n2c(O)c(C=NC3CCS(=O)(=O)C3)c3ccccc3c2=O)cc1 (stereo unspecified)
    -0.67	i
- O=[N+]([O-])/C=C/c1ccc2c(ccn2Cc2ccccc2)c1
    1.4	i
- O=C(Cc1ccccc1F)Nc1ccc(S(=O)(=O)Nc2ncccn2)cc1
    -1.3	i
- Cc1cccc(OCC(=O)N/N=C/c2ccc(N(C)C)cc2)c1
    -0.06	i
- Cc1cc(Nc2ccc(Cl)cc2)n(-c2ccccc2)n1
    -0.67	i
- CCOc1ccccc1CN(CCc1ccc2c(c1)OCO2)Cc1ccccn1
    0.15	i
- N#CCN(N=Nc1ccccc1)c1ccccc1
    2.2	i
- c1cc(-c2noc(CC3CCCCC3)n2)ccn1
    -0.1	i
- O=C(C[n+]1cccc(CNC(=O)c2ccc(OC(F)F)cc2)c1)Nc1ccc(SC(F)F)cc1
    -0.18	i
- COCCCNC(=O)c1cccc(OC)c1OC
    -0.33	i
- Cn1nc(-c2ccccc2)c(C(=O)Nc2ccc(C(F)(F)F)cc2)c1Cl
    1.1	i
- O=C(OCC(=O)N1CCN(c2ccccc2)CC1)c1ccccc1[N+](=O)[O-]
    1.3	i

Assay outcomes (PubChem)
